# Compound activity deposited in PubChem by several laboratories.
# RGS16-Gao HTS: RGS16-Galphao interaction regulator (human). O15492+P09471. bead-based flow cytometry RGS16-Galphao binding, fluorescence; actives lie on both sides. binding response (% of control), % at 10 µM. actives 0.38% (n = 220,000). AID 1441;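 active = below 25% or above 175%, edge rows of some plates excepted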;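 also: Galphao activated by GDP with aluminum fluoride before binding; 100% = wells without compound and 0% = beads without RGS; some results beyond the cut were filed as inactive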
# PKD1 inh: blocks activity of human protein kinase D1; Q15139; PKD1 kinase fluorescence polarization assay; inhibition, %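 (about 10 µM by stock and volumes)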; actives 0.056% (n = 200,000); AID 797;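 active = inhibition of 50% or more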;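 also: controls were vehicle for no effect and a reference inhibitor for full effect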
# Target sequence (Q15139 whole entry, looked up): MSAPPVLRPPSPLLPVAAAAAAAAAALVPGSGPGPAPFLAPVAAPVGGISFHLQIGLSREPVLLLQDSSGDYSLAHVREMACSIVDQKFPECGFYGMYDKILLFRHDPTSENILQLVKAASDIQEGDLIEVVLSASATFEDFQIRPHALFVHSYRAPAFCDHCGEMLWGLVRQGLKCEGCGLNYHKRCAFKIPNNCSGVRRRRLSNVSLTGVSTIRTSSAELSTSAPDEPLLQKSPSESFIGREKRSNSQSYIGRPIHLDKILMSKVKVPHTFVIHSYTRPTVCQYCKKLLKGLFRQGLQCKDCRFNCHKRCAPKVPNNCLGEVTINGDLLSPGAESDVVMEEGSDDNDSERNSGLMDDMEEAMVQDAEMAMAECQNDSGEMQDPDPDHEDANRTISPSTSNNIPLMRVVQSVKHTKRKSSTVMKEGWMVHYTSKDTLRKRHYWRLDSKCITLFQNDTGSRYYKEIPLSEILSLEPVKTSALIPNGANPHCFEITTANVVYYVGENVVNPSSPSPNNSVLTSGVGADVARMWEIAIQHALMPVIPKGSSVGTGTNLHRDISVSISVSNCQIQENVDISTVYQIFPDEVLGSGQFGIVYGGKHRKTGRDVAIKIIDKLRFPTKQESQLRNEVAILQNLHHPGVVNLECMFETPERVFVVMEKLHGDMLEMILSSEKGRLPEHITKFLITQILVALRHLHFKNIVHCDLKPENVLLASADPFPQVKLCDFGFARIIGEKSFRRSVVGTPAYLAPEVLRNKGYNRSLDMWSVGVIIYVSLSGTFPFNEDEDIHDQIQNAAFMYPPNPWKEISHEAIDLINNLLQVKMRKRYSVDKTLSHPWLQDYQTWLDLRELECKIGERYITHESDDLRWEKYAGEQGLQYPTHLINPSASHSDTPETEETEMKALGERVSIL
# HSV replic up: HSV replication enhancement; HSV replication augmentation in cells, fold increase; maximum fold increase; actives 0.005% (n = 220,000); AID 1956;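 active = peak rise of 1.5-fold or more in the series; inconclusive = self-fluorescent or not available for retest; tested in PC3 cells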;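 also: first round at 10 µM; read as green reporter fluorescence; hits show the peak of a series up to 25 µM; 1 = signal of infected wells without compound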
# INS promoter inh: TRM-6 insulin promoter activity inhibition. TRM-6 cells (human fetal islet line), insulin promoter-eGFP reporter, imaging; reporter expression induced with tamoxifen. AID 1273. actives 0.9% (n = 130,000). inhibition, % at 2 µM;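 active = inhibition above the mean plus 3 SD, with well images judged a real hit on visual review, cut at about 60% in these data, passing the limit was not always enough; inconclusive = inhibition over the cutoff but images rejected on review; inactive = inhibition not above the cutoff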
# GALR2 ag: GALR2 (human) receptor agonism; O43603; GALR2-expressing cells, agonist activation read-out; activation, %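 (tested at 5 µM)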; actives 0.48% (n = 140,000);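 active = above mean plus 3 SD of all compounds, about 5% in these data, not always enough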;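 also: 0% = vehicle buffer wells and 100% = reference agonist at full effect; tested in CHO reporter cells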
# INS promoter inh cell count: further read-out of INS promoter inh, marked with its call; normalized cell count, %; measured here: cell count, toxicity; reference of the scale not given here;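 cells exposed to compound for 48 h; stained nuclei by imaging scaled within each plate; lower means fewer cells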
# HSV replic up primary fold: further read-out of HSV replic up, marked with its call; fold increase; compound at 10 µM; measured here: primary screen fold increase 10 uM; tested in PC3 cells;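 GFP signal in the first replicate; 1 = infected wells without compound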
# Starred values were filed as active, the others as inactive; i = inactive; ? = inconclusive; / = no result given.
# Preview:
SMILES,RGS16-Gao HTS,PKD1 inh,HSV replic up,HSV replic up primary fold,INS promoter inh,INS promoter inh cell count,GALR2 ag
CCOC(=O)CC(=O)CSc1ncnc2c1cnn2-c1ccccc1,107,-16,i,0.97,/,/,0.1
CC(C)(C)C(=O)N1CCN(c2ccc([N+](=O)[O-])c(NCC3CCCO3)c2)CC1 (centres undefined),101,8,i,0.68,/,/,-0.6
O=C(NCc1ccncc1)C(=O)NCC(c1ccco1)N1CCN(c2ccc(F)cc2)CC1 (centres undefined),105,-7,i,0.89,-10,73,-0.9

# Main list, repeating the preview:
SMILES,RGS16-Gao HTS,PKD1 inh,HSV replic up,HSV replic up primary fold,INS promoter inh,INS promoter inh cell count,GALR2 ag
CCOC(=O)CC(=O)CSc1ncnc2c1cnn2-c1ccccc1,107,-16,i,0.97,/,/,0.1
CC(C)(C)C(=O)N1CCN(c2ccc([N+](=O)[O-])c(NCC3CCCO3)c2)CC1 (centres undefined),101,8,i,0.68,/,/,-0.6
O=C(NCc1ccncc1)C(=O)NCC(c1ccco1)N1CCN(c2ccc(F)cc2)CC1 (centres undefined),105,-7,i,0.89,-10,73,-0.9
CC(=O)c1cccc(NC(=S)NNC(=O)c2ccco2)c1,96,-8,i,0.94,/,/,/
CC1CN(Cc2cc(=O)[nH]c(C(C)C)n2)CC(C)O1 (centres undefined),105,0,i,0.88,-12,98,46*
Cc1ccc(C(=O)NCC(=O)NCC(=O)OCC(=O)c2ccc(Br)cc2)cc1,109,-11,i,0.96,37,150,-0.9
CN1CCN(c2nc3ccccn3c(=O)c2/C=C(\C#N)S(=O)(=O)c2ccc(Cl)cc2)CC1,99,/,i,1.2,/,/,/
CC(=O)N1CCN(c2ccc(Oc3ncnc4sccc34)cc2)CC1,104,-1,i,0.78,/,/,-2.0
CC1=NCCN1S(=O)(=O)c1cc(Cl)ccc1Cl,104,3,i,1.2,-38,100,1.4
O=C(/C=C/c1ccccc1[N+](=O)[O-])NCCc1ccc(F)cc1,99,0,i,0.92,/,/,/
Cc1ccc(OCCCCNC2CCCC(C)C2C)c(C)c1 (centres undefined),102,2,i,0.83,/,/,/
CC(C)c1cc(C(=O)N/N=C/c2cccnc2)n[nH]1,98,-1,i,1,-10,112,1.1
O=C(O)CC(CC(=O)Nc1ccc(F)c(Cl)c1)c1ccc(Cl)cc1Cl (centres undefined),100,/,i,0.88,/,/,/
O=C(NC(=S)Nc1cccc2c(O)cccc12)c1cccc(Br)c1,99,/,i,0.88,/,/,/
Cc1nnc(NC(=O)CSc2nnc(NC(=O)C(C)(C)C)s2)s1,92,6,i,1,11,84,/
CCN(CC)CC(=O)Nc1c(C#N)cnn1-c1ccccc1,101,/,i,0.53,/,/,/
O=C1CSC(=Nc2ccc(Cl)cc2)N1Cc1cccnc1,19*,/,i,1,/,/,/
O=C(NC(=S)N1CCN(c2ccc([N+](=O)[O-])cc2)CC1)c1ccco1,103,-6,i,0.9,/,/,/
O/N=C1\CCSc2ccc(F)cc21,102,/,i,1,/,/,/
Fc1ccccc1Cc1nnc2n1N=C(c1ccc(Cl)cc1)CS2,97,-12,i,0.86,43,71,-1.0
COC(=O)c1c(NC(=S)Nc2cc(OC)c(Cl)cc2OC)sc2c1CCCCC2,100,-16,i,0.94,4,95,-0.7
Cc1ccc([N+](=O)[O-])cc1NC(=O)CN(C1CCCCC1)S(=O)(=O)c1ccc(Cl)cc1,/,1,i,0.97,/,/,-3.0
O=C(Nc1cccc(-c2cn3ccccc3n2)c1)c1ccccc1,94,5,i,0.86,/,/,/
O=C(CSc1nnc(-c2ccncc2)n1C1CCCCC1)Nc1ccccc1,101,-4,i,0.91,-31,180,0.1
CC(=O)c1cc(F)c(N2CCN(C(=O)c3ccco3)CC2)cc1C,205,-5,i,1,47,108,-2.2
C=C(C)CNC(=S)NN=C1c2ccccc2-c2ccccc21,104,1,i,1,/,/,/
CC(C)(C)CC(=O)Nc1cc(S(=O)(=O)N2CCOCC2)ccc1N1CCCC1,109,/,i,0.85,/,/,/
Cc1ccc(NC(=O)C2CCN(S(=O)(=O)c3cccc4nonc34)CC2)nc1,109,-4,i,1,44,152,-2.3
CCOc1ccc2[nH]c(=O)c(CN(Cc3cccnc3)C(=O)Nc3ccccc3OC)cc2c1,103,-6,i,0.82,-71,130,0.9
O=C(NCCN1C(=O)S/C(=C\c2ccccc2)C1=O)c1cc(S(=O)(=O)N2CCOCC2)c(Cl)cc1Cl,96,1,i,0.9,/,/,0.2
O=C1C(Nc2cccc(O)c2)=C(N2CCCCC2)C(=O)c2ccccc21,91,3,i,0.5,/,/,-2.8
Nc1nc(SCc2ccc(Cl)cc2)[nH]c(=O)c1-c1ccccc1,98,-8,i,0.91,38,115,-1.6
Cc1ccc(NC(=O)Nc2nnc(-c3ccncc3)s2)cc1C,102,1,i,0.95,12,109,/
O=C1C2ON(c3ccccc3)C(c3ccncc3)C2C(=O)N1c1ccc(N2CCOCC2)cc1 (centres undefined),102,7,i,1.1,/,/,-0.8
COC(=O)c1ccc(CSc2nnc(Nc3ccc(C)cc3)s2)o1,99,-5,i,0.84,24,88,-3.5
O=C(c1ccco1)[C@@H]1[C@@H]2C(=O)N(c3ccccc3)C(=O)[C@@H]2C2c3ccccc3C=CN21 (some centres undefined),/,16,i,1.1,0,109,-1.2
COc1ccc(N(CC(=O)Nc2cccc(C)c2)S(=O)(=O)c2c(C)n[nH]c2C)cc1,109,-14,i,0.87,/,/,-2.8
CSc1nsc(/C=C/Nc2ccc(O)cc2C)c1C#N,110,-6,?,/,i,55,/
NS(=O)(=O)c1ccc(N2CCCCCC2)c([N+](=O)[O-])c1,106,-2,i,0.97,-50,91,/
COCCN1C=C2C(=O)C(C)(OC(=O)C3CCCC3)C(=O)C(c3ccccc3)=C2C=C1CCCC(=O)OC (centres undefined),98,/,i,0.83,/,/,/
C(=C1/CCCC2=C1Nc1ncnn1C2c1ccccc1)/c1ccccc1 (centres undefined),97,-2,i,0.47,73*,52*,-0.5
COC(=O)c1ccc(CSc2nnc(CNC(=O)c3ccccc3F)o2)o1,100,-3,i,1,-34,141,-2.0
CCCCN(CC)Cc1ccc(CNC(=O)Nc2ccccc2)o1,106,-5,i,1.1,-22,180,-2.1
O=C(Nc1ccc(OCC(=O)N2CCC(Cc3ccccc3)CC2)cc1)c1ccco1,126,5,i,1,4,121,-1.8
CCN(CC(=O)NCc1cccs1)c1nnnn1-c1ccccc1,97,-8,i,1,/,/,-4.1
CCOC(=O)C(NCc1ccccc1OC)(NC(C)=O)C(F)(F)F (centres undefined),96,0,i,0.92,67,104,-0.2
COc1ccc(S(=O)(=O)NCC2CCCN(C(=O)c3cccnc3C)C2)cc1 (centres undefined),48,-3,i,0.92,/,/,/
CN(C(=O)COC(=O)c1ccc(Cl)c(N)c1)c1ccccc1,96,-2,i,0.91,0,167,/
CC(Oc1ccc(Cl)cc1)c1ccnc(N)n1 (centres undefined),102,-3,i,0.88,9,89,/
Cc1cc(C)n2ncc(C(=O)Nc3ccc4c(c3)OCO4)c2n1,103,-2,i,0.92,6,43,-0.8
Cn1c(C(=O)NCCCN2CCOCC2)cc2c(=O)n(C)c3ccccc3c21,111,-14,i,1,/,/,-2.4
O=C(N/N=C/c1ccccc1)c1ccc(CN2C(=O)c3cccc4cccc2c34)cc1,104,1,i,0.97,28,167,0.4
CC(C)CCn1cnc2c(cnn2-c2ccc(F)cc2)c1=O,103,-3,i,1.1,29,120,-0.7
CC(=O)c1sc(N2CCOCC2)nc1-c1ccccc1,108,1,i,1,27,160,/
COc1ccc(N=C2SC(CC(=O)Nc3ccccc3OC)C(=O)N2Cc2ccco2)cc1 (centres undefined),98,-8,i,0.95,-12,76,-1.8
CN1C(=O)N(C)C2(c3ccccc3)Nn3c(s/c(=C/c4ccco4)c3=O)=NC12c1ccccc1 (centres undefined),98,0,i,1,/,/,-1.1
COc1ccc(NC(=O)c2cc3c(s2)CCC(C)C3)cc1S(=O)(=O)N1CCOCC1 (centres undefined),106,-11,i,0.77,9,129,-0.2
CCCOC(=O)Nc1ccc(S(=O)(=O)Nc2ncccn2)cc1,99,/,i,0.85,/,/,/
O=c1c2nncn2c2cccnc2n1CCNc1ncc(C(F)(F)F)cc1Cl,95,/,i,0.86,/,/,/
CCSc1nnc(NC(=O)c2cccnc2)s1,103,-8,i,1.2,-291,45,-1.3

# 3 entries drawn at random from those above, as already listed:
SMILES,RGS16-Gao HTS,PKD1 inh,HSV replic up,HSV replic up primary fold,INS promoter inh,INS promoter inh cell count,GALR2 ag
CCSc1nnc(NC(=O)c2cccnc2)s1,103,-8,i,1.2,-291,45,-1.3
CN1C(=O)N(C)C2(c3ccccc3)Nn3c(s/c(=C/c4ccco4)c3=O)=NC12c1ccccc1 (centres undefined),98,0,i,1,/,/,-1.1
CC(=O)c1sc(N2CCOCC2)nc1-c1ccccc1,108,1,i,1,27,160,/

# (cont.)
SMILES,RGS16-Gao HTS,PKD1 inh,HSV replic up,HSV replic up primary fold,INS promoter inh,INS promoter inh cell count,GALR2 ag
COc1ccc(-c2nc(SCC(=O)N3CCOCC3)n[nH]2)cc1,103,-9,i,1,-72,172,-1.9
CC(=O)NC(=S)Nc1ccc(NC(=O)c2cccs2)cc1,106,4,i,1,3,155,-1.7
COc1ccc(NC(=O)CN2CC(C)OC(C)C2)cc1Cl (centres undefined),110,-5,i,0.94,/,/,/
CN(C)C(=O)C[n+]1ccc(C(N)=O)cc1,107,/,i,0.95,/,/,/
O=C(Oc1ccc2c(-c3ccccc3)cc(=O)oc2c1)c1cccs1,100,12,i,1.2,5,81,0.0
CCOC(=O)C1CCCN(Cc2c(C(=O)N3CCOCC3)nc3ccccn23)C1 (centres undefined),103,-4,i,1.1,/,/,/
CC(=O)N(c1ccc(C)cc1)C1C=CS(=O)(=O)C1 (centres undefined),109,-4,i,1,/,/,-2.1
Cc1cc(=O)n2[nH]c(N3C(=O)CCC3=O)nc2n1,104,-5,i,0.9,50,101,-3.5
c1ccc(COC2CCCN(Cc3nc(-c4cnccn4)no3)C2)nc1 (centres undefined),95,0,i,1.1,/,/,/
CCn1c(=O)n(CC(=O)Nc2cc(OC)c(OC)c(OC)c2)c(=O)c2ccccc21,98,3,i,0.89,/,/,-2.2
COc1ccc(CN2CCN(c3ccc(F)cc3)CC2)c(OC)c1OC,108,0,i,1,24,119,0.4
COC(=O)Nc1ccc(S(=O)(=O)n2cnc3ccccc32)cc1,107,-4,i,1.1,17,71,-2.8
COc1ccc(NC(=O)CCCN2C(=O)C3C4C=CC(C4)C3C2=O)c(OC)c1 (centres undefined),95,-12,i,0.97,-23,126,-3.4
CCC1=C(OC(=O)N(CC)CC)N2C(=O)OC(=NCCOC)[C@]2(Cc2ccccc2)[C@H]2C1=CC[C@H]1C(=O)N(CC)C(=O)[C@H]12,98,/,i,0.94,/,/,/
COc1ccc(NC(=O)COC(=O)c2ccc(N3CCCC3=O)cc2)cc1OC,99,-3,i,1,0,164,-2.9
CCCc1cc(=O)[nH]c(SCC(=O)c2[nH]c(C)c(C(=O)OCC)c2C)n1,131,-5,i,0.99,14,79,-1.3
Cc1cc(C(=O)OC(C)C(=O)Nc2cccc(S(=O)(=O)N3CCOCC3)c2)c(C)o1 (centres undefined),92,-2,i,0.81,13,77,-1.6
O=C(N/N=C/c1ccsc1)c1ccc2ccccc2n1,102,-3,i,1,/,/,/
CC(NC(=O)c1ccco1)C(=O)OC(C)C(=O)NCc1ccccc1 (centres undefined),98,1,i,1.1,/,/,/
O=C(Nc1cccc(-c2cn3ccccc3n2)c1)c1cccc(Cl)c1,102,-5,i,0.42,63,140,5.1
Cc1cc(OCCCC(=O)N2CCCCC2)cc(C)c1Cl,105,-3,i,0.94,-14,92,-1.9
O=C(NC(=S)Nc1ccccc1O)c1ccc(Cl)cc1Cl,106,-5,i,1.1,27,107,/
Cc1[nH]c(=O)[nH]c1C(=O)CCCCC(=O)OCC(=O)Nc1ccccn1,107,3,i,1,-79,79,-2.3
COCCNC(=O)/C(C#N)=C/C=C/c1ccccc1,95,-1,i,0.82,/,/,/
CCOC(=O)c1c(CN2CCOCC2)oc2ccc(OC)cc12,96,-2,i,0.83,/,/,-1.3
COc1cccc(C(=O)Nc2ccc(S(=O)(=O)NCc3ccco3)cc2)c1,100,-8,i,0.49,/,/,-0.1
COc1ccc(-n2c(N)c(-c3nc4ccccc4n3C)sc2=S)cc1,99,1,i,0.92,30,160,-2.4
